NS1 inh = qHTS Assay for Inhibitors of Influenza NS1 Protein Function | 270,000 compounds, 0.4% hits | Potency, µM (titrated, usually from 46.1 µM), inactives show at the highest dose activity, positive = more growth | AID 2326, 2010 | S. cerevisiae slowed by influenza A NS1, growth recovery by OD600; active means well fitted rising curve with a large enough effect; inconclusive means small, poorly fitted or top-dose-only effect; inactive means no such curve, though single readings can be large or run the other way; also: nearly all actives have a fitted effect of over 50% in size
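A cell-based growth assay was used: compounds that relieve NS1-induced slow growth of budding yeast raise OD600. Assay medium was yeast nitrogen base with ammonium sulphate and -URA supplement, pH 6.0, with 2% galactose.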
SARS PLpro yeast = qHTS of Yeast-based Assay for SARS-CoV PLP; 330,000 compounds, 0.19% hits; Potency, µM (titrated, usually from 32.9 µM), for the others: at the top dose activity, positive = growth rescue; S. cerevisiae expressing SARS-CoV PLpro, growth rescue; control for the full effect not named in the record; active means well fitted rising curve with a large enough effect; inconclusive means small, poorly fitted or top-dose-only effect; inactive means no such curve, though single readings can be large or run the other way; also: 0% is about no effect; nearly all actives have a fitted effect of over 55% in size; growth read by luminescence after 48 h
StopGo reporter = High Throughput Screening for Foot and Mouth Disease Virus Antivirals. human cells with a luciferase reporter of 2A StopGo recoding; control for the full effect not named in the record. Potency, µM (series often up to 57.9 µM), for inactives: at the top dose signal change, negative = less light. 410,000 compounds, 1.2% hits; active = well fitted falling curve with a large enough effect; inconclusive = small, poorly fitted or top-dose-only effect; inactive = no such curve, though single readings can be large or run the other way; tested in HEK293T cells; also: % is scaled to controls: 0 for no effect and ±100 for the full control effect; nearly all actives have a fitted effect of over 45% in size; luciferase light after 4 h
Lassa entry inh = qHTS for Inhibitors of binding or entry into cells for Lassa Virus; Potency, µM (series often up to 37.9 µM), for inactives: at the highest dose activity change, negative = inhibition, hits mostly inhibitors; 300,000 compounds, 1.2% hits; Lassa virus pseudotype entry inhibition, cell reporter; control for the full effect not named in the record; active means well fitted inhibition curve with a large enough effect; inconclusive means small, poorly fitted or top-dose-only effect, or effect the other way; inactive means flat fitted curve, though single readings scatter; tested in HEK293 cells; also: % is scaled to controls: 0 for no effect and ±100 for the full control effect; nearly all actives have a fitted effect of over 50% in size; luciferase read-out
MARV entry inh = qHTS for inhibitors of binding or entry into cells for Marburg Virus; Marburg virus pseudotyped entry inhibition, cell reporter; control for the full effect not named in the record; about a third of the inactives were read at about 46 µM; Potency, µM (doses to about 37.8 µM), without a hit: top-dose activity change, negative = inhibition, actives largely listed as inhibitors; 300,000 compounds, 1.8% hits; active = well fitted inhibition curve with a large enough effect; inconclusive = small, poorly fitted or top-dose-only effect, or effect the other way; inactive = flat fitted curve, though single readings scatter; tested in HEK293 cells; about a fifth of its hits are not listed in these tables; also: % is scaled to controls: 0 for no effect and ±100 for the full control effect; luciferase read-out
Cruzain Triton = qHTS Assay for Promiscuous and Specific Inhibitors of Cruzain (with detergent) | purified cruzain, Z-FR-AMC fluorescence, 0.01% Triton | AID 1478, 2009 | 200,000 compounds, 0.43% hits | Potency, µM, for inactives: max response, negative = inhibition, actives largely listed as inhibitors | Cruzipain (Trypanosoma cruzi), P25779;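 also: plate controls were neutral wells for no effect and buffer without enzyme for full effect; nearly all actives have a fitted effect of over 40% in size; top concentration of the series not given in the record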
Target sequence (P25779 123-467 limits assumed): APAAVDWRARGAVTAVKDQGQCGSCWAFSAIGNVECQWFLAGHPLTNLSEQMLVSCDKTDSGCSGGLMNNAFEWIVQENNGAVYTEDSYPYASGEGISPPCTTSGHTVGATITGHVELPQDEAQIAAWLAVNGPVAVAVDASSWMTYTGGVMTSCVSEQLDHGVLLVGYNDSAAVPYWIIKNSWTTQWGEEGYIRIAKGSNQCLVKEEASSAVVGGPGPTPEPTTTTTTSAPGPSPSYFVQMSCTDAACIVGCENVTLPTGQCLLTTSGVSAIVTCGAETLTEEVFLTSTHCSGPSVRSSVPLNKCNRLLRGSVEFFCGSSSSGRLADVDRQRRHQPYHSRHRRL
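Sodium acetate buffer (100 mM, pH 5.5) containing 5 mM DTT and 0.01% Triton X-100 hosted 1.5 nM cruzain and test compound for 15 min at room temperature. Cleavage of 2 uM Z-FR-AMC was then tracked by fluorescence.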
RE007 growth inh = qHTS Assay for Inhibitors of the HIV-1 protein Vpr | Potency, µM (top dose mostly 92.2 µM), for inactives: at the top dose activity change, negative = less growth | S. pombe RE007 Vpr strain, BacTiter-Glo ATP luminescence, 24 h; control for the full effect not named in the record | 360,000 compounds, 0.21% hits; active = well fitted falling curve with a large enough effect; inconclusive = small, poorly fitted or top-dose-only effect; inactive = no such curve, though single readings can be large or run the other way;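 also: % is scaled to controls: 0 for no effect and ±100 for the full control effect; nearly all actives have a fitted effect of over 50% in size; the assay follows cell death caused by Vpr and the record does not say whether a fall means rescue or toxicity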
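Fission yeast strain RE007, carrying one chromosomally integrated HIV-1 vpr copy, was seeded at OD 0.01 in PMG+AL medium with 23 nL pinned compound. After 24 h at 30 °C and 99% humidity, viability was read by BacTiter-Glo luminescence.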
Cruzain noTriton = qHTS Assay for Promiscuous and Specific Inhibitors of Cruzain (without detergent); 200,000 compounds, 2.3% hits; purified cruzain, Z-FR-AMC fluorescence, no detergent; Potency, µM, for the others: max response, negative = inhibition, usual class: inhibitors;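 also: plate controls were enzyme without inhibitor for no effect and buffer without enzyme for full effect; nearly all actives have a fitted effect of over 40% in size; top concentration of the series not given in the record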
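Detergent-free condition (0.00005% Triton X-100) in acetate buffer pH 5.5 with DTT. 1.5 nM enzyme and compound were pre-mixed 15 min, then 2 uM Z-FR-AMC substrate added; reaction progress from fluorescence change between first and third reads (60 s).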
An asterisk follows results filed as active; ? = inconclusive; . = no result given; & = joins results of further samples; [ ] = another dose, or the depositor's remark. Unless noted, calls follow the shape of the dose curve; as a rule, active = well fitted curve in the direction sought with a large enough effect; inconclusive = small, poorly fitted or top-dose-only effect, or another doubt; inactive = no such curve, though single readings can be large; an effect the other way counts as inactive or inconclusive. Potency is read from the fitted curve at half-maximal effect. This is a random part of the collection; about 4.7% have a hit in one of these screens.

SMILES	NS1 inh	SARS PLpro yeast	StopGo reporter	Lassa entry inh	MARV entry inh	Cruzain Triton	RE007 growth inh	Cruzain noTriton
COC(=O)c1ccccc1NC(=O)Cn1c(SC)c(F)cnc1=O	-5%	4%	-3%	0%	?	2.7%	-1%	13%
O=C(O)CCC(=O)NNC(=O)CCC(=O)NCc1ccccc1	1%	-3%	-6%	-1%	10%[46.1 µM]	3.1%	-5%	-3%
O=C(c1ccc(F)cc1)C1CCN(Cc2cn[nH]c2-c2ccccc2)CC1	0%	1%	-14%	3%	4%	.	1%	.
CS(=O)(=O)N(CC(=O)NCCSCc1ccccc1)c1ccccc1Br	-3%	-3%	-18%	.	.	.	-6%	.
COc1ccc(CN(C)C(=O)c2oc3ccccc3c2CSC)cc1F	-17%	-7%	7%	-17%[46.1 µM]	?	.	-6%	.
C=Cc1ccc(CN2C(=O)N(c3ccc(CC)cc3)S(=O)(=O)c3ccccc32)cc1	.	.	-12%	-5%[46.1 µM]	.	0.0%	.	-29%
Cc1cc(=O)[nH]c2nnc(SCC(=O)Nc3ccc(F)cc3F)n12	.	.	-11%	12%[46.1 µM]	.	-1.1%	.	15%
CC(Nc1ccccc1)C(=O)Nc1ccc(F)cc1 (stereo not given)	-2%	13%	-3%	4%	-17%	1.7%	12%	1%
NS(=O)(=O)c1ccc(NC(=O)CCCCC(=O)Nc2ccc(S(N)(=O)=O)cc2)cc1	3%	4%	2%	24%[46.1 µM]	0%[46.1 µM]	.	-1%	.
CC(=O)N1CCN(c2ccccc2NC(=O)c2ccc3ccccc3c2)CC1	-37%	-1%	5%	9%	-4%[46.1 µM]	.	6%	.
COc1ccc(N2CCN(C(=O)C3CCN(S(=O)(=O)c4cnc[nH]4)CC3)CC2)cc1	.	.	3%	?	7%[46.1 µM]	-0.3%	.	-2%
C=CCn1c(SCC(=O)NC2CCCC2)nc2scc(-c3ccco3)c2c1=O	14%	7%	-29%	-4%	-1%[46.1 µM]	-6.2%	9%	-9%
Cc1noc(/C=C/N(C)C)c1S(=O)(=O)N1CCc2ccccc21	?	-41%	-22%	.	.	-9.3%	14%	-7%
N#Cc1nc(/C=C/c2ccc(F)cc2)oc1N1CCCCC1	.	.	8%	4%[46.1 µM]	-6%[46.1 µM]	?	.	?
CCOc1ccccc1NS(=O)(=O)c1c(C(=O)OC)sc2cccc(F)c12	.	.	19%	-14%[46.1 µM]	.	-5.1%	.	-3%
COc1cccc(-c2nc(CS(=O)(=O)CC(=O)N3CCN(c4ccccn4)CC3)c(C)o2)c1	-73%	3%	0%	.	7%	-1.3%	-1%	4%
COc1ccc(Oc2nc3c(c(=O)n(C)c(=O)n3C)n2Cc2ccccc2)cc1	4%	1%	-13%	-7%	?	2.6%	6%	13%
COc1cccc(N(CC(=O)NC2CCCC2)C(=O)CCCC(=O)Nc2ccccn2)c1	-2%	-4%	17%	-7%	2%[46.1 µM]	.	-6%	.
CCN(Cc1ccccc1)C(=O)CS(=O)(=O)c1ccccc1	6%	0%	-4%	0%[46.1 µM]	-3%[46.1 µM]	.	-10%	.
COC(=O)c1ccc(CN2CCCC(C(=O)c3cc(F)ccc3OC)C2)cc1 (stereo not given)	-11%	4%	?	.	.	.	2%	.
COc1ccc(C(CC(=O)N2CCCC(C)C2)c2c(OC)cc(OC)c3ccc(=O)oc23)cc1 (stereo not given)	0%	0%	7%	.	.	.	-9%	.
CCCCCc1ccnc(CC(=O)c2ccc(OC)cc2)c1	.	.	-11%	-4%[46.1 µM]	?	.	-13%	.
CCCCC1(C)Cc2ccccc2C(=S)N1 (stereo not given)	-26%	26%	-16%	9%	1%	-6.0%	11%	-2%
Cn1c(SCc2cccnc2)nc2c(c1=O)SCC2	-1%	0%	-28%	-2%	16%	.	-12%	.
Clc1ccc(-n2cnnn2)cc1	12%	0%	18%	17%	2%	2.0%	9%	-9%
COc1ccc(CN2CCN(S(=O)(=O)c3ccc(NC(C)=O)cc3)CC2)c(OC)c1OC	5%	1%	-10%&-25%	-20%[46.1 µM]	.	0.3%	15%	2%
Cc1nnc(NC(=O)/C=C/c2ccco2)s1	12%	-1%	-25%	3%	?	-11%	8%	-4%
CCC(=O)Nc1cc(ON=C(C)C)cc([N+](=O)[O-])c1	-26%	-33%	-24%	2%	?	-3.8%	34%	-12%
CC1CCCCN1C(=O)C1COc2ccccc2O1 (stereo not given)	-8%	-2%	-1%	-12%	14%[46.1 µM]	.	-12%	.
COc1ccc2oc(C(=O)OCC(=O)NCc3ccco3)c(C)c2c1	.	-1%	-1%	?	-27%[46.1 µM]	.	6%	.
Cc1nc(NC(=O)COC(=O)c2cc3c(s2)CCC(C)C3)c(Cl)cc1Cl (stereo not given)	1%	4%	-14%	10%[46.1 µM]	-17%[46.1 µM]	-5.5%	-1%	-4%
COc1ccc(S(=O)(=O)N2CCCC2C(=O)Nc2ccc(O)cc2)cc1 (stereo not given)	6%	7%	3%	.	0%	0.4%	8%	-1%
CCOc1ccc(C(=O)NC2CCN(S(C)(=O)=O)CC2)cc1	-10%	-1%	34%[activator]	29%	?	1.9%	-3%	4%
Cc1cc(N=Nc2ccccc2)cc(C)c1NC(=O)C(F)(F)F	.	.	30%[activator]	-31%[46.1 µM]	6%	.	5%	.
Cc1c(C(=O)N2CCC(c3nc4ccccc4s3)CC2)oc2cc(Br)ccc12	.	.	-20%	9%[46.1 µM]	10%[46.1 µM]	-1.5%	.	-2%
O=C(CSc1nnc([C@@H]2CCCN2)o1)c1ccc(Cl)cc1	-3%	-1%	33%[activator]	-9%	2%	-6.0%	4%	24%
CC1CCCN(C(=O)Nc2cccc(NC(=O)N3CCCC(C)C3C)c2)C1C (stereo not given)	-3%	-7%	-2%	-10%	19%	2.1%	-2%	1%
CCC(C(=O)OC)n1nnc2sc(-c3ccccc3)cc2c1=O (stereo not given)	.	.	-11%	1%[46.1 µM]	11%[46.1 µM]	-11%	.	-7%
CC(OC(=O)Cc1ccsc1)C(=O)Nc1ccc(C(N)=O)cc1 (stereo not given)	.	11%	-16%	5%	?	.	18%	.
COC(=O)c1sccc1NC(=O)c1c(F)c(F)c(F)c(F)c1F	.	.	22µM*	?	?	.	-14%	.
Cc1ccc(Cn2c(=N)n(CC(=O)c3ccccc3)c3ccccc32)cc1	14%	0%	-39%	.	.	.	-3%	.
Cn1c(=O)oc(=O)c2ccccc21	.	.	2%	-5%[46.1 µM]	?	.	-8%	.
COc1ccc(CCN2C(=O)c3oc4cc(C)cc(C)c4c(=O)c3C2c2ccccc2F)cc1OC (stereo not given)	.	.	2%	2%[46.1 µM]	15%[46.1 µM]	-0.5%	.	-4%
Cc1c(Cl)cccc1NC(=O)Nc1nnc(N2CCCCCC2)s1	.	.	10%	-12%[46.1 µM]	-19%[46.1 µM]	-5.5%	.	-14%
COc1ccccc1N(C(=O)c1snc(C(N)=O)c1N)C(C(=O)NCCC(C)C)c1ccco1 (stereo not given)	-13%	9%	20%	-24%	-1%&-25%	0.5%	-13%	?
CCn1c(=O)n(CC2CCC(C(=O)NC(C)C)CC2)c(=O)c2sccc21 (stereo not given)	.	.	-5%	1%[46.1 µM]	.	-1.8%	.	4%
COC(=O)c1cc(NC(=O)c2ccc(Cn3cc(Cl)cn3)o2)cc(C(=O)OC)c1	8%	14%	?	-4%	?	-4.1%	9%	8%
CC(=O)c1ccc(NC(=O)CN2C(=O)CCc3ccccc32)cc1	.	.	-5%	?	.	-3.7%	.	-18%
COc1ccccc1-c1cc(C(=O)N/N=C/c2ccc(C)s2)c2ccccc2n1	?	12%[6.58 µM]	-14%	7.1µM*	8.9µM*	-4.2%	-11%	-18%
Cc1cc2c(SCC(=O)Nc3ccccc3O)ncnc2s1	.	.	-6%	-8%	5%[46.1 µM]	.	-1%	.
CCOc1ccc(S(=O)(=O)NCCC(=O)NCC(c2cccs2)N2CCOCC2)cc1 (stereo not given)	9%	.	-15%	0%	6%	.	0%	.
O=C1CC(c2ccc3c(c2)OCO3)c2cc3c(cc2N1)OCO3 (stereo not given)	-19%	.	?	-24%	4%	4.8%	7%	-4%
CCCCCCCN1CCC(=O)N([C@H](CO)c2ccccc2)CC1	-9%	2%	-12%	.	.	.	-6%	.
S=c1[nH]nc(-c2ccccc2)n1/N=C/c1cccc(Br)c1	-16%	-2%	?	?	-11%	.	-15%	.
C=CCn1c(-c2cc3cccc(OC)c3o2)n[nH]c1=S	.	-14%	3%	18%	0%[46.1 µM]	.	1%	.
c1cncc(CNc2ncnc3ccc(-c4ccoc4)cc23)c1	.	0%&1%	0%&-17%	.	.	-21%	.	?
Cc1ccccc1N1CCN(CCCN2C(=O)CC(=C(c3ccccc3)c3ccccc3)C2=O)CC1	?	12%	-18%	1%	-13%	2.4%	1%	?
O=C(CCc1nnc(C2CCCCC2)o1)N1CCN(c2ccccc2F)CC1	9%	-1%	6%	.	.	.	12%	.
Cc1[nH]ccc(=O)c1OCc1ccc(Cl)cc1	9%	2%	14%	7%	2%	3.4%	-5%	7%
CCN1CCN(Cc2cc(Br)cc(OC)c2O)CC1	-6%	-5%	-24%	5%	-7%	3.0%	-6%	-3%

More results:
SMILES	NS1 inh	SARS PLpro yeast	StopGo reporter	Lassa entry inh	MARV entry inh	Cruzain Triton	RE007 growth inh	Cruzain noTriton
CCN(CC)CCNc1nc(-c2ccc(OC(F)F)cc2)c(C)s1	3%	1%	-17%	.	.	.	24%	.
CS(=O)(=O)N1CCN(c2ccccc2NC(=O)Cc2ccccc2)CC1	3%	3%	0%	-8%	-20%	5.3%	-9%	-1%
CC(CCc1ccccc1)NC(=O)/C=C/c1ccc(Cl)cc1 (stereo not given)	-4%	-29%	-13%	?	-23%	-6.7%	5%	3%
Cc1nc2c(c(C)c1CCC(=O)N1CCN(c3ccccc3)CC1)c(=O)n(C)c(=O)n2C	.	.	?	7%[46.1 µM]	7%[46.1 µM]	0.1%	.	-2%
COc1ccc(NS(=O)(=O)c2csc(C(=O)N3CCCC3)c2)c(OC)c1	-6%	10%	-22%	.	.	.	1%	.
COc1ccc(C2N(C(C)=O)CCCN2S(=O)(=O)c2ccc(C)cc2)cc1 (stereo not given)	-8%	1%	9%	?	-11%[46.1 µM]	.	5%	.

Compound activity from PubChem BioAssay.
